Screens (PubChem)
SARS PLP yeast: blocks SARS-CoV papain-like protease in a yeast assay. S. cerevisiae expressing SARS-CoV PLpro, growth rescue; control for the full effect not named in the record. Potency, µM (series often up to 32.9 µM), inactives show at the top dose activity, positive = growth rescue. actives 0.19% (n = 330,000); also: 0% is about no effect; nearly all actives have a fitted effect of over 55% in size; growth read by luminescence after 48 h
RE007 growth inh: less growth of the S. pombe RE007 Vpr strain; S. pombe RE007 Vpr strain, BacTiter-Glo ATP luminescence, 24 h; control for the full effect not named in the record; Potency, µM (highest dose often 92.2 µM), for inactives: at the highest dose activity change, negative = less growth; actives 0.21% (n = 360,000); AID 651644; active = well fitted falling curve with a large enough effect; inconclusive = small, poorly fitted or top-dose-only effect; inactive = no such curve, though single readings can be large or run the other way;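 also: % is scaled to controls: 0 for no effect and ±100 for the full control effect; nearly all actives have a fitted effect of over 50% in size; the assay follows cell death caused by Vpr and the record does not say whether a fall means rescue or toxicity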
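Fission yeast RE007 carrying one integrated HIV-1 vpr copy, seeded at OD 0.01 in PMG+AL medium with 23 nL pinned compound. Grown 24 h at 30 degrees; viability read by BacTiter-Glo luminescence after 5 min.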
Marburg entry inh: blocks Marburg virus binding to or entry into cells; actives 1.8% (n = 300,000); Potency, µM (doses to about 37.8 µM), inactives show at the highest dose activity change, negative = inhibition, most hits filed as inhibitors; Marburg virus pseudotyped entry inhibition, cell reporter; control for the full effect not named in the record; about a third of the inactives were read at about 46 µM; AID 540276; active = well fitted inhibition curve with a large enough effect; inconclusive = small, poorly fitted or top-dose-only effect, or effect the other way; inactive = flat fitted curve, though single readings scatter; tested in HEK293 cells; about a fifth of its hits are not listed in these tables; also: % is scaled to controls: 0 for no effect and ±100 for the full control effect; luciferase read-out
2A StopGo: FMDV 2A StopGo reporter, luciferase signal; human cells with a luciferase reporter of 2A StopGo recoding; control for the full effect not named in the record; Potency, µM (doses to about 57.9 µM), without a hit: at the top dose signal change, negative = less light; actives 1.2% (n = 410,000); AID 1159524; active = well fitted falling curve with a large enough effect; inconclusive = small, poorly fitted or top-dose-only effect; inactive = no such curve, though single readings can be large or run the other way; tested in HEK293T cells; also: % is scaled to controls: 0 for no effect and ±100 for the full control effect; nearly all actives have a fitted effect of over 45% in size; luciferase light after 4 h
Cruzain Triton: blocks cruzain activity in presence of Triton detergent | Potency, µM, for the others: max response, negative = inhibition, hits mostly inhibitors | actives 0.43% (n = 200,000) | AID 1478 | P25779 | purified cruzain, Z-FR-AMC fluorescence, 0.01% Triton; active = well fitted curve in the direction sought with a large enough effect; inconclusive = small, poorly fitted or top-dose-only effect, or another doubt; inactive = no such curve, though single readings can be large; an effect the other way counts as inactive or inconclusive;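 also: plate controls were neutral wells for no effect and buffer without enzyme for full effect; nearly all actives have a fitted effect of over 40% in size; top concentration of the series not given in the record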
Target sequence (P25779 123-467 limits assumed): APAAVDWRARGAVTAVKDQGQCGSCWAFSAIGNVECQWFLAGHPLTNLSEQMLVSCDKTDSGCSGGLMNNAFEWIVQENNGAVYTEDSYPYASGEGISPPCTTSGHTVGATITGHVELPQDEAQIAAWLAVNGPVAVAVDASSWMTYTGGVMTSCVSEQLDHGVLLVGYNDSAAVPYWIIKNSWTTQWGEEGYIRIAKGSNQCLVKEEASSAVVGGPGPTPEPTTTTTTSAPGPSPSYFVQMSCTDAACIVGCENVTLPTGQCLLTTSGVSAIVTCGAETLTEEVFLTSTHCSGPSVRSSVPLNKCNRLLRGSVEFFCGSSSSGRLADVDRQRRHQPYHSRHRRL
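Detergent-containing arm of a paired screen for aggregation-based inhibition: 0.01% Triton X-100 present. Cruzain at 1.5 nM cleaved 2 uM Z-FR-AMC at pH 5.5 with 5 mM DTT; AMC fluorescence gain over 60 s measured activity.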
Lassa entry inh: blocks Lassa virus binding to or entry into cells | Potency, µM (highest dose often 37.9 µM), without a hit: at the highest dose activity change, negative = inhibition, hits mostly inhibitors | Lassa virus pseudotype entry inhibition, cell reporter; control for the full effect not named in the record | AID 540256 | actives 1.2% (n = 300,000); active means well fitted inhibition curve with a large enough effect; inconclusive means small, poorly fitted or top-dose-only effect, or effect the other way; inactive means flat fitted curve, though single readings scatter; tested in HEK293 cells; also: % is scaled to controls: 0 for no effect and ±100 for the full control effect; nearly all actives have a fitted effect of over 50% in size; luciferase read-out
NS1 inh: inhibitors of influenza NS1 protein function | S. cerevisiae slowed by influenza A NS1, growth recovery by OD600 | Potency, µM (doses to about 46.1 µM), for the others: at the top dose activity, positive = more growth | actives 0.4% (n = 270,000) | AID 2326; also: actives are rising curves; nearly all actives have a fitted effect of over 50% in size
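Recovery from NS1-induced slow growth read by OD600 in budding yeast switched to galactose assay medium (pH 6.0, -URA) at 1:100 dilution. Compound 23 nl per well; the matching strain lacking NS1 serves as control.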
Cruzain noTriton: inhibitors of Trypanosoma cruzi cruzain without detergent; AID 1476; Potency, µM, for inactives: max response, negative = inhibition, most hits filed as inhibitors; purified cruzain, Z-FR-AMC fluorescence, no detergent; actives 2.3% (n = 200,000); active = well fitted curve in the direction sought with a large enough effect; inconclusive = small, poorly fitted or top-dose-only effect, or another doubt; inactive = no such curve, though single readings can be large; an effect the other way counts as inactive or inconclusive;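 also: plate controls were enzyme without inhibitor for no effect and buffer without enzyme for full effect; nearly all actives have a fitted effect of over 40% in size; top concentration of the series not given in the record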
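Purified cruzain at 1.5 nM, pre-incubated 15 min with compound at room temperature in 100 mM sodium acetate pH 5.5, 5 mM DTT, 0.00005% Triton X-100. Reaction started with 2 uM Z-FR-AMC; AMC fluorescence increase over 60 s gives rate.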
Starred values were filed as active, the others as inactive; ? = inconclusive; . = no result given; [ ] = another dose, or the depositor's remark. Unless noted, calls follow the shape of the dose curve; as a rule, active means well fitted rising curve with a large enough effect; inconclusive means small, poorly fitted or top-dose-only effect; inactive means no such curve, though single readings can be large or run the other way. Potency is read from the fitted curve at half-maximal effect.

1. O=C(CC1C(=O)NCCN1C(=O)Nc1ccccc1)Nc1ccc(F)cc1 (centres undefined)
2. COc1ccc(OC)c(NC(=O)c2c(N3CCCC3=O)c3cc(OC)ccc3n2C)c1
3. CSc1ncc(/C=C2/C(=O)NC(=O)N(c3ccc(Cl)cc3)C2=O)cn1
4. COc1cc2c(c(OC)c1OC)-c1c(cc3c(c1OC)OCO3)C[C@H](C)[C@@](C)(O)C2
5. Cc1cc(=O)n(C)c(=O)n1CCCCCCOc1ccc([N+](=O)[O-])cc1
6. CC(=O)Nc1ccc(S(=O)(=O)NCc2ccc3c(c2)cc(C)n3C)cc1
assay / compound,1,2,3,4,5,6
SARS PLP yeast,1%,.,1%,3%,13%,-7%
RE007 growth inh,8%,.,-15%,-1%,.,-19%
Marburg entry inh,1%,.,1%[46.1 µM],.,-1%,.
2A StopGo,-13%,-13%,-5%,-21%,.,?
Cruzain Triton,.,-8.6%,.,.,-0.3%,-0.1%
Lassa entry inh,16%,26%[46.1 µM],26%[46.1 µM],.,0%,.
NS1 inh,0%,.,.,6%,0%,11%
Cruzain noTriton,.,?,.,.,6%,-6%

Some of these compounds in order of formula weight, low to high:
5. Cc1cc(=O)n(C)c(=O)n1CCCCCCOc1ccc([N+](=O)[O-])cc1
1. O=C(CC1C(=O)NCCN1C(=O)Nc1ccccc1)Nc1ccc(F)cc1 (centres undefined)
3. CSc1ncc(/C=C2/C(=O)NC(=O)N(c3ccc(Cl)cc3)C2=O)cn1
assay / compound,5,1,3
SARS PLP yeast,13%,1%,1%
RE007 growth inh,.,8%,-15%
Marburg entry inh,-1%,1%,1%[46.1 µM]
2A StopGo,.,-13%,-5%
Cruzain Triton,-0.3%,.,.
Lassa entry inh,0%,16%,26%[46.1 µM]
NS1 inh,0%,0%,.
Cruzain noTriton,6%,.,.

The results go on:
7. ON=C1CCN(c2ncc(C(F)(F)F)cc2Cl)CC1
8. O=P(OC1CCCCC1)(OC1CCCCC1)C(O)c1c(Cl)cccc1Cl (centres undefined)
9. COc1ccc(C2C(=O)N(C3CCCCCC3)CC(=O)N2Cc2ccccc2)cc1OC (centres undefined)
10. COc1ccc2ccccc2c1C1CC(=O)N2CN(Cc3ccco3)CSC2=C1C#N (centres undefined)
11. COc1ccccc1C1CN(c2ccc(F)cc2F)N=C1c1cccs1 (centres undefined)
12. CCC(C)c1ccc(OCC(=O)O)cc1 (centres undefined)
assay / compound,7,8,9,10,11,12
SARS PLP yeast,6%,-24%,-1%,-3%,-26%,1%
RE007 growth inh,-2%,-8%,12%,-5%,6%,19%
Marburg entry inh,-8%,-24%,-9%,.,-17%,-1%
2A StopGo,-1%,6%,-12%,-23%,.,8%
Cruzain Triton,-3.5%,-7.6%,2.5%,-17%,-19%,2.8%
Lassa entry inh,-10%,?,?,.,12%,3%
NS1 inh,1%,-5%,-4%,12%,0%,-6%
Cruzain noTriton,0%,10%,13%,?,?,-2%

13. O=C(NCc1cccnc1)c1ccc(S(=O)(=O)Nc2ccccc2)cc1
14. Cc1ccc(-n2c(SCC(=O)NCCN3C(=O)CSC3=O)nnc2-c2ccccc2)cc1
15. O=C(CCC1N=C2c3ccccc3N=C(SCc3cccc(Cl)c3)N2C1=O)N1CCN(c2ccccc2)CC1 (centres undefined)
16. Cc1ccc(OCC(=O)N/N=C\c2ccc(-c3cccc(C(=O)O)c3)o2)c(C)c1
17. CCOc1cc(C2C(C(=O)OC(C)C)=C(C)N=C3SCCC(=O)N32)ccc1OC(C)=O (centres undefined)
18. NC(=O)CC(NC(=O)Cc1ccc(Br)cc1)c1ccc(N2CCC(N3CCCCC3)CC2)c([N+](=O)[O-])c1 (centres undefined)
assay / compound,13,14,15,16,17,18
SARS PLP yeast,1%,-12%,.,-7%,3%,-2%
RE007 growth inh,9%,-11%,.,.,29%,-20%
Marburg entry inh,-18%,3%,.,1%,2%,.
2A StopGo,-13%,-15%,?,16%,-7%,-10%
Cruzain Triton,.,1.2%,-4.9%,-13%,-9.7%,.
Lassa entry inh,-1%,-5%,-21%[46.1 µM],1%,-1%,.
NS1 inh,.,-2%,.,-3%,-22%,-8%
Cruzain noTriton,.,-7%,-15%,3%,?,.

19. CC1(C)CC(=O)CC2(C1)NCC(c1ccccc1)c1c2[nH]c2ccccc12 (centres undefined)
20. CSC(=NCc1ccc(F)cc1)NS(=O)(=O)c1cccs1
21. O=C(CSc1nncs1)Nc1ccc(Cl)cn1
22. CS(=O)(=O)N(CC(=O)NC1CCCC1)c1ccc2c(c1)OCCO2
23. CN(C1CCCCC1)S(=O)(=O)c1ccc2c(c1)c(=O)c(C(=O)N1CCN(c3ccc(F)cc3)CC1)cn2C
24. CCCC(=O)Nc1cc(-c2nnc(OC)c3ccccc23)ccc1N1CCCCC1
assay / compound,19,20,21,22,23,24
SARS PLP yeast,1%,2%,?,2%,.,9%
RE007 growth inh,4%,1%,4%,-4%,.,.
Marburg entry inh,?,5%,7%,-20%,16%[46.1 µM],.
2A StopGo,-11%,-12%,15%,.,6%,.
Cruzain Triton,.,4.9%,-3.1%,2.0%,-1.3%,-2.2%
Lassa entry inh,-2%[46.1 µM],-13%,0%,-1%,19%[46.1 µM],.
NS1 inh,.,1%,1%,-6%[9.22 µM],.,-6%
Cruzain noTriton,.,0%,2%,0%,-3%,1%

25. Cc1cc(=O)[nH]c(N/N=C/c2ccc(Cl)cc2Cl)n1
26. O=C(NNC(=O)c1ccccc1Br)c1ccc2nc[nH]c2c1
27. CCOC(=O)N1CCC(NS(=O)(=O)c2cc(Br)cc3c2N(C(=O)CC)CC3)CC1
28. CC(=O)c1cccc(NC(=O)c2nc(-c3ccccc3)n(-c3ccccc3)n2)c1
29. Cc1cccc(Nc2nc(N)c([N+](=O)[O-])c(NCc3ccccc3)n2)c1
30. CC1CCCN(Cc2nc3c(c(=O)n(C)c(=O)n3C)n2CC(=O)c2ccccc2)C1 (centres undefined)
assay / compound,25,26,27,28,29,30
SARS PLP yeast,2%,1%,-1%,.,-2%,1%
RE007 growth inh,0%,11%,1%,.,19%,-2%
Marburg entry inh,.,.,?,1%[46.1 µM],?,-4%
2A StopGo,21%,27%,-12%,-24%,-26%,0%
Cruzain Triton,.,.,-0.5%,-13%,.,-2.8%
Lassa entry inh,.,.,?,-4%[46.1 µM],?,.
NS1 inh,8%,14%,-11%,.,16%,0%
Cruzain noTriton,.,.,27%,0%,.,14%

31. COC(=O)NC(=C(Cl)Cl)S(=O)(=O)c1ccccc1
32. CSc1nc(N)nc2c1ncn2C1OC(CO)CC1O (centres undefined)
33. c1ccc(COc2ccc(OCCCCN3CCCCC3)cc2)cc1
34. Cn1c(=O)[nH]c(=O)c2c1nc(SCCO)n2CCCc1ccccc1
35. CCCc1cc(C(=O)Nc2cc(C)on2)no1
36. Cc1ccc(NC(=O)C2CCCN2S(=O)(=O)c2ccc3c(c2)CCCC(=O)N3)cc1C (centres undefined)
assay / compound,31,32,33,34,35,36
SARS PLP yeast,.,.,-8%,6%,4%,.
RE007 growth inh,-22%,-15%,-12%,7%,1%,.
Marburg entry inh,?,21%,?,.,.,.
2A StopGo,28µM*,-7%,20%,-10%,39%[activator],-28%
Cruzain Triton,3.2%,.,15%,.,4.9%,1.7%
Lassa entry inh,13µM*,3%[46.1 µM],-23%,.,.,-1%[46.1 µM]
NS1 inh,16%,.,-11%,-10%,-13%,.
Cruzain noTriton,-6%,.,-7%,.,0%,-10%

37. CCNC(=S)Nc1ccc(N(c2ccccc2)C(C)C)cc1
38. CCN(Cc1ccccc1)C(=O)CN1C(=O)COc2ccc(S(=O)(=O)N(CC)CC)cc21
39. COC(=O)CNC(=O)c1ccc(F)cc1
40. C=CCn1c(SCc2ccc(C#N)cc2)nnc1-c1cccc(Cl)c1
41. COc1ccc(OC)c(-c2noc(CSc3nnc(-c4ccccc4)n3-c3ccccc3)n2)c1
42. Cc1ccc(N(Cc2ccccc2)C(=O)c2cc(S(=O)(=O)N3CCOCC3)ccc2Cl)cc1
assay / compound,37,38,39,40,41,42
SARS PLP yeast,0%,.,0%,-2%,.,7%
RE007 growth inh,14%,.,-7%,2%,.,5%
Marburg entry inh,-9%,15%[46.1 µM],-6%,?,0%[46.1 µM],?
2A StopGo,-22%,3%,-4%,-30%,?,4%
Cruzain Triton,-4.6%,-1.1%,.,0.2%,-3.1%,.
Lassa entry inh,-11%,15%[46.1 µM],17%,-14%,-7%[46.1 µM],?
NS1 inh,-5%,.,1%,-44%,.,.
Cruzain noTriton,7%,17%,.,-9%,-11%,.

43. Cc1cc(C)c(/C=C/c2onc(C)c2S(=O)(=O)N2CCC(C(=O)NCCc3ccccc3)CC2)c(C)c1
44. CCOC(=O)c1[nH]c(C)c(/C(O)=C2\C(=O)C(=O)N(CCCN3CCOCC3)C2c2cccs2)c1C (centres undefined)
45. CC1CCN(C(=O)Cn2c3ccccc3c3nc4n(c(=O)c32)CCS4)CC1
46. Cc1ccc(NC(=O)Cn2nnc(-c3ccccc3-n3cnnn3)n2)c(C)c1
47. O=C(CSc1nc2ncc(Cl)cc2[nH]1)N1CCC(Cc2ccccc2)CC1
48. COC(=O)C1CSC2c3ccccc3C(=O)N12 (centres undefined)
49. O=C(CC1CCCCC1)NCc1ccco1
assay / compound,43,44,45,46,47,48,49
SARS PLP yeast,.,-2%,1%,0%,0%,.,0%
RE007 growth inh,.,24%,-16%,-11%,15%,5%,-9%
Marburg entry inh,.,?,.,3%[46.1 µM],-2%,11%[46.1 µM],?
2A StopGo,-28%,-8%,-14%,-6%,-24%,-2%,0%
Cruzain Triton,-1.8%,.,.,.,.,.,.
Lassa entry inh,11%[46.1 µM],-18%,.,-2%,-3%,-2%,?
NS1 inh,.,1%,8%,.,.,.,4%
Cruzain noTriton,0%,.,.,.,.,.,.
